# Sa RN4220 lethal: S. aureus RN4220 growth inhibition. OD600, 16 h. inhibition, % (test concentration not listed). 330,000 compounds, 0.33% hits;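 active = z-score of -3 or lower and OD600 up to 0.18 on both plates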;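 note: plate controls were untreated cells for no effect and reference antibiotic for full effect; stock transfer was 100 nL into about 80 µL; one replicate is shown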
# Autofluor counter: compound fluorescence in toxin protease inhibitor counterscreen; compound autofluorescence counterscreen, microsphere flow cytometry; active compounds read high; fluorescence intensity (concentration not given with the values); 360,000 compounds, 3.1% hits;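 active = at least 3 SD above the mean of all compounds, about 16000 in these data; inconclusive = too few beads counted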;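 note: 100 nL of 1 mM stock went into each well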
# BJeLR viability: BJeLR cell viability loss; BJeLR (HRASV12) viability, CellTiter-Glo ATP luminescence, 48 h; reference of the scale not given here; inhibition, % (concentration not given with the values); 300,000 compounds, 0.17% hits; AID 1554;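 active = replicate mean above 50%; inconclusive = above 50% but judged a plate artefact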;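 note: 50 nL library stock added to about 25 µL; numbers are from one replicate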
# PrP 5UTR inh: suppresses PrP 5' UTR mRNA reporter expression; cell-based PrP 5' UTR mRNA reporter, plate reader; inhibition, % (concentration not given with the values); 340,000 compounds, 0.35% hits;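 active = every replicate at 50% or more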;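 note: 0 = median of the neutral control wells; tested in H4 reporter cells; numbers are from one replicate; inactives centre near -14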
# ugtP null kill: growth inhibition of S. aureus ugtP deletion strain; AID 1259309; 330,000 compounds, 0.54% hits; S. aureus RN4220 ugtP deletion, OD600 growth, 16 h; some inactives read as strong as hits; growth inhibition, % (concentration not given with the values);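 active = z-score under -3 and OD600 up to 0.15 on both plates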;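 note: plate controls were untreated wells for no effect and antibiotic for full effect; wells of about 80 µL received 100 nL stock; the first replicate is given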
# Mtb hypoxia inh: reduces hypoxia-regulated biosensor signal in M. tuberculosis; AID 1159583; 300,000 compounds, 0.1% hits; fluorescence inhibition, % (test concentration not listed); M. tuberculosis hypoxia-regulated fluorescent reporter, fluorescence;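 active = 35 to 45% if threefold the growth effect, above 45% if 1.5-fold the growth effect; inactive = the rest, general growth blockers included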;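 note: wells of about 50 µL received 100 nL stock; 0% = vehicle wells and 100% = reference inhibitor wells; whole bacteria with a GFP reporter of the hypoxia response; strong numbers were not always called active; many hits fall short of the cut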
# Mtb hypoxia inh growth: recorded beside Mtb hypoxia inh, whose call it bears; growth inhibition, %; measured here: M. tuberculosis growth (absorbance);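 0% = vehicle and 100% = reference antibiotic; read after six days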
# Numbers without * were called inactive; u = inconclusive; x = no result given. An unsorted share of the library. About 4% of those tested had a hit in this group.
structure,Mtb hypoxia inh growth,Mtb hypoxia inh,BJeLR viability,PrP 5UTR inh,ugtP null kill,Autofluor counter,Sa RN4220 lethal
CCOc1cc(NC(=S)NCCCOC)c(OCC)cc1NC(=O)c1ccco1,3,2,0,2,3,2340,11
C/C(=N\NC(=S)NCc1ccccc1)c1ccc2ccccc2c1,x,x,2,0,x,2367,x
CCOc1ccc(NC(=O)COC(=O)C2(C)CC2(Cl)Cl)c([N+](=O)[O-])c1 (configuration not stated),8,10,1,-10,14,3569,19
CC1=C(C(=O)OCc2ccccc2)C(c2ccccc2-c2ccccc2)NC(=O)N1CCCCCC(=O)O (configuration not stated),5,9,-5,-14,-2,4018,-3.6
Cc1ccc(S(=O)(=O)N2CCOCC2)cc1C(=O)OC(C)C(=O)c1ccccc1 (configuration not stated),-5,-11,-7,-14,0,6283,4.5
CCOC(=O)C1CCCN(CC(O)COc2cccc(C)c2)C1 (configuration not stated),4,3,-8,-5,1,2449,2.9
CN(C(=O)COC(=O)CSc1ccc([N+](=O)[O-])cc1)C1CCS(=O)(=O)C1 (configuration not stated),1,6,-2,-9,5,4356,4.9
COc1cc(/C=N/NS(=O)(=O)c2ccc(C)c([N+](=O)[O-])c2)cc([N+](=O)[O-])c1O,x,x,-8,-21,x,3048,x
COCCN(C(=O)CCc1nnc(CCc2c[nH]c3ccccc23)o1)C(C)C,1,14,-9,-25,5,2320,0.4
Cc1cccc(Nc2nc(NCc3ccco3)nc(N)c2[N+](=O)[O-])c1,2,-8,9,-9,-14,3865,-1.2
Cc1cccc(CCNC(=O)Cn2ncc3c([nH]c4ccc(C)cc43)c2=O)c1,-8,3,5,3,-2,4187,0.7
Cc1nccn1CCc1nc(N)nc(N)n1,13,10,9,-10,10,7791,2.6
C#Cc1ccc([C@@H]2C=C(C(=O)Nc3ccccc3)O[C@H](OCC)[C@H]2CCCO)cc1,x,x,8,-2,x,4301,x
CCOc1ccc(C(=O)NCCO)cc1,10,18,1,-21,1,2779,5.0
Cc1cccc(Sc2ccc([N+](=O)[O-])cc2[N+](=O)[O-])n1,-12,-15,0,-31,-1,2341,3.7
O=C(NCCc1c[nH]c2ccc(Cl)cc12)c1cccnc1,6,-4,1,13,-9,10047,-0.9
CCN(CC)c1ccc(C=NNC(=O)c2ccc3nc[nH]c3c2)cc1,18,1,x,x,-6,x,-2.5
COc1ccc(NC(=O)N2CCC(c3nc4ccccc4[nH]3)CC2)cc1,4,7,0,-22,12,2353,5.6
CCCS(=O)(=O)c1cn2cccc(N)c2c1S(=O)(=O)CCC,7,5,-7,-16,0,3543,5.0
Cc1nc2ccc(NC(=O)CSc3nnc(C)s3)cc2[nH]1,-6,7,-5,-19,9,3451,-1.2
Cc1ccccc1-c1nn(-c2ccc(F)cc2F)cc1CNC1CC1,1,-6,-2,-24,-5,4728,-3.0
Cc1cc(C(C2C(=O)CC(C)(C)CC2=O)C2C(=O)CC(C)(C)CC2=O)cc(C)c1OC(F)F,-6,-9,-3,-5,1,3726,3.0
CCCCCC1CC(CC(=O)NC(=S)Nc2ccccc2Cl)C(=O)O1 (configuration not stated),12,8,3,-11,16,3272,2.9
CCC(=O)Nc1ccc(Nc2ccccc2)cc1,9,8,0,-23,0,9226,2.7
CCCCc1ccc(CC2S/C(=C(\C#N)C(=O)N3CCOCC3)N(c3ccccc3)C2=O)cc1 (configuration not stated),13,9,-17,-8,1,7845,-0.3
O=C(CCNC(=O)c1ccc(Cl)cc1)Nc1ccccc1N1CCCCC1,10,10,3,-20,1,5128,1.1
Nc1ccc(-c2nc3ccc(-c4nc5ccccc5o4)cc3[nH]2)cc1,x,x,7,-52,-9,3862,4.2
Cn1c(=O)c2[nH]c(N3CCOCC3)nc2n(-c2ccccc2)c1=O,-5,3,-1,-13,-6,3426,-9.6
COc1ccccc1OCc1nnc(SCC(=O)c2cc(Cl)ccc2OC)o1,12,7,-7,-15,6,21782*,-8.0
CC(C)N1CCN(Cc2cccc3c2OCO3)CC1CCO (configuration not stated),-3,0,-6,-19,-2,2607,3.0
CC1(CCl)N([O-])C2=C(CCCC2)[N+]1=O (configuration not stated),-2,3,-9,-10,2,5659,-0.5
Cc1noc(C)c1COC(=O)c1cccc(N(C)C)c1,0,-2,-2,-8,1,4445,0.6
Cc1ccn2cc(CSc3ccccc3N)nc2c1,11,1,7,-72,-3,8284,-1.0
CCOCCCNCc1cc(Cl)ccc1OCC,-13,-6,7,-12,1,3894,0.8
COc1ccccc1/C=N/NC(=O)c1c(-c2ccccc2)noc1C,x,x,-8,-7,x,3831,x
Clc1ccccc1CN1CCN(/N=C/c2ccncc2)CC1,x,x,0,-19,x,2195,x
O=[N+]([O-])c1cccc(-c2cc3ccccc3[nH]2)c1,0,-1,5,-19,-13,3838,0.5
O=C1CN=C(c2ccc(F)cc2)c2oc3ccccc3c2N1,-4,1,0,26,-4,4602,3.7
COc1ccccc1-n1cc(C(=O)NCC(=O)N2CCN(c3ccccn3)CC2)c2ccccc2c1=O,-3,4,-11,-20,3,4162,2.4
COc1ccc(NCc2cc3cc(OC)ccc3[nH]c2=O)cc1,9,1,-8,-21,-10,6757,4.3
Cc1cccn2c(=O)c3cc(C(=O)NCc4ccccc4)c(=N)n(CCCN4CCOCC4)c3nc12,9,-2,x,-17,-11,5151,-1.9
CN1CCCN(C(=O)CC2(CC(=O)O)CCCCC2)CC1,7,14,-8,-6,8,4301,2.8
CCOC(=O)c1c(=O)n(O)c2ccc(OC)cc2[n+]1[O-],11,10,-6,-8,-8,3363,-11
CC(=O)NC12CC3CC(C)(C1)CC(NC(C)=O)(C3)C2,9,6,-3,-47,3,23165*,-0.3
COc1cc(/C=N\Nc2nc(-c3ccc(C)cc3)c(NC(C)=O)s2)ccc1O,x,x,-17,-15,x,6243,x
COC(=O)C1=C(c2ccccc2)CC2CCC1N2C(=O)NC1CCCCC1 (configuration not stated),-6,-3,x,x,-3,x,0.0
CCOc1ccc(-c2cc(C)n3nc(C(N)=O)cc3n2)cc1,x,x,-5,-14,-7,2728,1.4
O=C(CNS(=O)(=O)c1ccc(F)c(Cl)c1)N1CCCC1,8,-3,1,-8,8,4490,-1.2
Cc1ccc2c(c1)c1c(n2CC(O)CNC(CO)(CO)CO)CCCC1 (configuration not stated),x,x,-2,-18,12,5365,2.8
Cc1nn(Cc2cccc(C(N)=O)c2)c(C)c1Br,2,5,2,-20,6,5396,2.2
CCCN(CC(=O)Nc1ccccc1C)C(=O)Cc1cccs1,4,10,x,-9,5,3040,3.6
COc1cccc(C(C)N(C)Cc2nc(-c3ccoc3)oc2C)c1 (configuration not stated),0,0,0,-28,7,4135,4.9
O=C(NCc1cccnc1)Nc1ccc2c(c1)OCO2,0,3,-1,-13,7,4043,-1.7
N#Cc1ccc(Oc2ccc(C(F)(F)F)cc2NC(=O)c2ccc(F)cc2)cc1,4,13,-2,-13,-12,4275,-8.6
CCN(CC)S(=O)(=O)c1ccc2c(c1)nc(CCC(=O)OCC(=O)Nc1cc(Cl)cc(Cl)c1)n2C,x,x,-1,-9,x,9266,x
COc1ccc(C(CCN2CCCC(C)C2)c2c(OC)cc(OC)c3c(C)cc(=O)oc23)cc1 (configuration not stated),14,9,6,-14,-1,3704,0.8
CS(=O)(=O)N1CCc2cc(-c3csc(NC(=O)C(c4ccccc4)c4ccccc4)n3)ccc21,2,8,-2,-22,22,12784,13
CCOc1cc(C)c(Cl)cc1S(=O)(=O)n1cnc2ccccc21,9,10,4,-14,-2,4339,7.7
O=C(/C=C/c1ccc(Cl)cc1Cl)c1ccc[nH]1,3,15,-2,-57,-19,2465,4.6
COc1ccc(CCC(=O)OCC(=O)Nc2ccc3[nH]c(=O)[nH]c3c2)cc1,0,-2,2,-30,-2,5070,3.8

# Three compounds picked at random from those above:
structure,Mtb hypoxia inh growth,Mtb hypoxia inh,BJeLR viability,PrP 5UTR inh,ugtP null kill,Autofluor counter,Sa RN4220 lethal
COC(=O)C1=C(c2ccccc2)CC2CCC1N2C(=O)NC1CCCCC1 (configuration not stated),-6,-3,x,x,-3,x,0.0
O=[N+]([O-])c1cccc(-c2cc3ccccc3[nH]2)c1,0,-1,5,-19,-13,3838,0.5
Cc1noc(C)c1COC(=O)c1cccc(N(C)C)c1,0,-2,-2,-8,1,4445,0.6

# The listing continues.
structure,Mtb hypoxia inh growth,Mtb hypoxia inh,BJeLR viability,PrP 5UTR inh,ugtP null kill,Autofluor counter,Sa RN4220 lethal
CC(C(=O)Nc1cccc([N+](=O)[O-])c1)[n+]1ccccc1 (configuration not stated),-7,-11,-1,-15,-5,2519,-5.8
COc1ccc(NC(=O)C2CC(=O)NC(Nc3cccc(C)c3)=N2)cc1 (configuration not stated),x,x,5,-8,-5,4406,1.9
O=C(NN=Cc1c[nH]c2ccccc12)c1ccc(Br)cc1,-17,0,x,x,4,x,-2.1
COc1ccc(S(=O)(=O)N(C)CC(=O)N2CCOCC2)cc1,-4,-3,11,-28,2,4535,0.0
CC(CN1CCCC1CN1C(N)=NCC1Cc1ccccc1)N1CC(Cc2ccccc2)N(CCCC2CCCC2)C1=N (configuration not stated),x,x,x,x,100*,x,101*
CN(C)c1ccc(C2(O)C(=O)c3ccccc3C2=O)cc1,8,9,-2,-15,0,2298,3.7
COCc1c(C(=O)NN=Cc2cccc3ccccc23)nnn1-c1nonc1N,6,12,x,x,-1,x,0.9
O=C(Nc1ccc(S(=O)(=O)N2CCCCCC2)cc1)c1c(F)cccc1F,-7,1,1,-18,1,4050,-3.8
C(=C\c1ccccc1)/CSc1nc2ncccc2[nH]1,-8,-3,-1,-22,-2,u,4.7
C(=NN1CCN(c2ccccc2)CC1)c1ccncc1,-5,1,x,x,3,x,6.1
FC(F)(F)C1=CC(c2ccc(Br)cc2)=NCCN1,x,x,7,-7,-10,6041,2.6
COc1cc(C(=S)N2CCCC2)cc(OC)c1OC,7,2,-6,4,6,3181,7.2
COc1ccc(C(=O)OCc2cc(C)ccc2C)cc1S(=O)(=O)N1CCCC1,-8,6,x,-2,-5,x,-0.5
Nc1nnc(SC2CCCC2)s1,4,8,1,-23,5,2196,4.6
N=C(N)SCc1ncccc1O,-6,-4,5,-23,4,5848,0.8
Nc1nc(CN2CCCCC2)cs1,-2,5,-7,-6,4,3346,4.9
C#CCOCCOCCOCCNc1nc(N2CCN(C(=O)C(CCCCN)n3cc(C(N)C(C)CC)nn3)CC2)nc(N2CCN(C(=O)C(Cc3ccc(O)cc3)n3cc(C(N)C(C)CC)nn3)CC2)n1 (configuration not stated),23,4,x,x,-6,x,1.9
CCN(C(=O)COC(=O)c1oc2ccccc2c1C)c1c(N)n(Cc2ccccc2)c(=O)[nH]c1=O,9,-8,x,7,-9,2999,-0.8
O=C(CN1CCOCC1)Nc1ccc(Oc2ccc(NC(=O)CN3CCOCC3)cc2)cc1,6,0,12,-18,1,11176,1.4
COc1ccc(C(=O)n2nc(-c3ccccc3)nc2SC)cc1,3,-1,4,-9,2,2335,6.3
COc1ccccc1OCC(=O)Nc1ccc(S(=O)(=O)N2CCN(C)CC2)cc1,0,-1,8,-4,0,4960,-0.6
COc1ccc(NS(=O)(=O)c2ccc(NC(=O)c3ccccc3)cc2)nn1,1,2,-1,-31,-3,5020,4.3
Cc1ccc2nc(C)c(C(=O)N/N=C/c3cccs3)n2c1,x,x,-4,-23,x,2133,x
COc1cccc(C(=O)NN=C2SCC(=O)N2Cc2ccc3c(c2)OCO3)c1,9,5,x,x,-5,x,0.7
COc1ccc(C(=O)N2CCN(c3ccc([N+](=O)[O-])c(-n4nc(C)cc4C)c3)CC2)cc1,2,-2,-1,-4,0,8875,1.3
Cc1ccccc1C(=O)NCC(=O)Nc1ccc(C)c(S(=O)(=O)N2CCCCCC2)c1,3,7,-10,-6,-1,5858,3.3
CC(=O)c1cc(C#N)c(SCc2ccncc2)nc1C,x,x,-5,-1,0,2468,2.9

# Source: PubChem (several laboratories)
